Bioassay records deposited in PubChem by several laboratories.
LANA-H2A inh: blocks KSHV LANA binding to histone H2A/H2B; inhibition, % (no concentration beside the values); Q9QR71; 320,000 tested, 0.6% active; AID 2629; cell-free LANA-H2A/H2B peptide, fluorescence polarization; in the data active = inhibition mostly above about 10%, no sharp cut-off; inactive = mostly below about 6.7%;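 also: stock transfer was 7.5 nL into about 10 µL; 0% = median of vehicle wells and 100% = median of positive control wells; one replicate is shown; the record names a cut of 25% in any replicate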
A1 inh: inhibitors of the anti-apoptotic protein A1, read as caspase activation; MEF A1-2A-BIM cells, Caspase-Glo 3/7 luminescence, 3 h; percent of clofoctol response, vehicle zero; AID 2462; 330,000 tested, 0.066% active; caspase activation, % (no concentration beside the values);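 active = over half of replicate activation scores above 10%, or exactly half above 10 with the replicate mean above 10; inconclusive = replicate mean below 10 yet half the replicates above 10; inactive = over half of replicates below 10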;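 also: wells of about 30 µL received 50 nL stock; many hits fall short of the cut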
UCH37 inh: inhibitors of human deubiquitinating enzyme UCH37; Q9Y5K5; purified proteasome/UCH37, Ub-AMC cleavage fluorescence; inhibition, % (test concentration not listed); 330,000 tested, 0.33% active; AID 588478;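 active = mean of two replicates above 20%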;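 also: 0% = compound-free wells with enzyme and 100% = wells lacking proteasome; stock transfer was 100 nL into about 20 µL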
Target sequence (Q9Y5K5 whole entry, looked up): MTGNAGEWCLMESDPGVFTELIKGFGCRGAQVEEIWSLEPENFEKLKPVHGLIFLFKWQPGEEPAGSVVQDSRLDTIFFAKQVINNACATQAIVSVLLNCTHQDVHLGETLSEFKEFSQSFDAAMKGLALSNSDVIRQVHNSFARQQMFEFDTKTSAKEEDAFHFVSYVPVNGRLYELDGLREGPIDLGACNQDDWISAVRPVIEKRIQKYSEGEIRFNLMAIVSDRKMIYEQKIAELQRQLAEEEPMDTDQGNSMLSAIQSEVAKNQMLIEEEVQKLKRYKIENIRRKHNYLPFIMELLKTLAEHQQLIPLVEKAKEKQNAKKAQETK
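Test system – human UCH37 enzyme supplied as purified proteasome complex · Incubation – 30 min preincubation with enzyme, 25 min cleavage at room temperature · Detection – AMC fluorescence from Ub-AMC cleavage, excitation 355 nm, emission 460 nm · Benchmarks – no-proteasome wells (full inhibition) and compound-free wells (no inhibition)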
RanGTP-Impb inh: inhibitors of RanGTP-importin-beta interaction, primary screen, biochemical, FRET, CFP-Ran, YFP-importin-beta, homogeneous; 300,000 tested, 1.1% active; cell-free CFP-Ran/YFP-importin-beta FRET ratio; inhibition, % (test concentration not listed);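 active = most replicates above 15%; inconclusive = exactly half above 15%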;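 also: 0% = DMSO wells and 100% = Ran loaded with GDP instead of GTP; wells of about 40 µL received 100 nL stock; the first replicate is given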
T cruzi inh: blocks replication of Trypanosoma cruzi. inhibition, % (no concentration beside the values). AID 1885. T. cruzi beta-gal in NIH3T3, luminescence, 90 h. 300,000 tested, 1.4% active;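 active = mean inhibition across valid replicates above about 55%, limit read from the data; inconclusive = mean below that limit but half or more replicates reach it; inactive = mean below it, under half of replicates reach it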;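 also: signal also drops with host cell toxicity which is not excluded here; 0% = plate median of DMSO wells and 100% = zero luminescence signal; higher percent means less beta-gal luminescence so fewer parasites; stock transfer was 50 nL into about 50 µL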
Beta2AR agonist: activates human beta-2 adrenergic receptor causing internalization | AID 504454 | 340,000 tested, 0.43% active | P07550 | Am2.2-beta2AR cells, FAP receptor internalization, flow cytometry; reference of the scale not given here | response, % (concentration not given with the values);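 active = response above a set limit, near 3 SD of response in nonfluorescent compounds, cut at about 42% in these data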;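 also: stock transfer was 100 nL into about 11 µL; a reference agonist was the positive control; negative values mostly stem from fluorescent compounds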
Target sequence (P07550 whole entry, looked up): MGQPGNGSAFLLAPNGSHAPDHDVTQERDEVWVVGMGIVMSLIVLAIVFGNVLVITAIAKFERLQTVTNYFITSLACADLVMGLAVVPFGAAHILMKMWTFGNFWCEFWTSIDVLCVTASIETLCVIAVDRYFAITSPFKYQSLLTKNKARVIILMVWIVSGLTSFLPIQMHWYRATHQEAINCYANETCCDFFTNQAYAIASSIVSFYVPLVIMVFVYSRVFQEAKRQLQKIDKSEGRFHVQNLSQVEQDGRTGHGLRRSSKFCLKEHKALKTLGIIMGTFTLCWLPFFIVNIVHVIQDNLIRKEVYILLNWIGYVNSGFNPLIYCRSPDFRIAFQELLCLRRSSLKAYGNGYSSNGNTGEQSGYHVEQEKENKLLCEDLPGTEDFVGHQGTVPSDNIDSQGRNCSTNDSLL
Beta cell apopt: blocks beta cell apoptosis | protection from apoptosis, % (concentration not given with the values) | 300,000 tested, 0.8% active | INS-1E cytokine-induced death, ATP luminescence, 48 h; percent of positive-control rescue, neutral wells zero;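 active = all replicates at 75% or more, or half of them and the mean; inconclusive = half reach 75% but not the mean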;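 also: 0% = cytokine-treated negative control wells and 100% = positive control rescue; higher means more ATP so stronger rescue from cytokine killing; wells of about 40 µL received 100 nL stock; the first replicate is given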
Calb FLC: affects C. albicans growth with fluconazole. growth inhibition, % (concentration not given with the values). 300,000 tested, 0.57% active. C. albicans CaCi-2 (fluconazole-resistant clinical isolate) + fluconazole, Alamar Blue growth, 48 h;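 active = most replicates above 75%; inconclusive = exactly half above 75%; inactive = most below 75%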;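 also: all wells also contain fluconazole at 8 µg/ml as a sub-toxic cotreatment; 0% = median of DMSO wells and 100% = median of geldanamycin control wells; wells of about 8 µL received 7.5 nL stock; the first replicate is given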
* hit, by the source's call; ? = inconclusive; · = not tested or not shown. An unsorted share of the library; overall some 4.3% were active at least once.

Every second line gives: LANA-H2A inh	A1 inh	UCH37 inh	RanGTP-Impb inh	T cruzi inh	Beta2AR agonist	Beta cell apopt	Calb FLC
- CN1C(=O)C(O)(CC(=O)c2cccc(-n3cccc3)c2)c2ccccc21 (stereo not given)
  4.3	0.0	0.1	0.1	-6	-5	-3	3
- CN(C)C(CNC(=S)Nc1ccccc1Cl)c1cccnc1 (stereo not given)
  -3.0	0.4	4.7	5.1	-5	1	-2	-6
- CCOc1cc(C(=O)OCC(=O)Nc2cc(C)on2)ccc1OCC(C)C
  -6.6	0.6	4.1	-1.0	-15	1	2	13
- COc1ccccc1N1CCN(C(=O)Nc2cccc(C)c2)CC1
  1.4	-0.4	4.0	1.8	1	2	·	2
- CCCC(=O)C1=C(O)C(C(=O)OC)C(C)(C)CC1=Nc1ccccc1 (stereo not given)
  4.6	0.0	2.1	10	16	-1	-4	12
- Cc1cc(C)n(CC(C)Nc2nc3nonc3nc2N2CCCCC2)n1 (stereo not given)
  1.3	-1.0	12	-5.6	9	-1	6	1
- CSc1ccccc1NC(=O)CN(C)C(=O)c1c(C)nn(Cc2ccccc2)c1C
  -1.9	0.9	0.1	·	·	0	-1	·
- CNC(=S)N(Cc1ccc2c(c1)OCO2)C1CC(=O)N(c2ccccc2)C1=O (stereo not given)
  -1.5	-0.4	3.2	-1.7	-4	3	22	?
- C#CCOc1coc(COC(=O)c2ccccc2)cc1=O
  -1.7	1.0	4.5	-0.9	-11	-2	-4	28
- O=C(NCCOC(=O)C1COc2ccccc2O1)c1cccnc1 (stereo not given)
  -6.0	-0.4	1.6	-1.6	-13	-4	-2	3
- CC(C)CNC(=O)c1ccc(NC(=O)c2ccccc2[N+](=O)[O-])cc1
  8.5	0.2	3.0	2.0	-8	5	-9	-6
- COc1cccc(C(=O)NCCS(=O)(=O)NCC2CCCO2)c1 (stereo not given)
  -1.8	2.1	0.9	0.7	-8	-3	-5	-9
- COc1ccc(OC)c(CNc2nc3ccccc3n2CCN2CCCCC2)c1
  6.1	-0.1	1.9	0.1	29	-1	9	-9
- FC(F)(F)c1cccc(N2CCN(c3nnnn3-c3ccccc3)CC2)c1
  -6.5	-0.3	1.4	2.3	11	-7	7	13
- CCOC(=O)COc1cc(=O)n(CC)c2ccccc12
  -0.4	-2.1	-0.6	-2.3	-11	12	-5	18
- COC(=O)c1sccc1NC(=O)C1CC(C)=C(C)CC1C(=O)O (stereo not given)
  -7.6	0.3	1.0	-1.3	-23	3	-4	0
- COC(=O)c1cc(-c2ccc(Cl)cc2Cl)n[nH]1
  -0.8	-0.5	-0.3	-0.4	-9	1	2	-8
- Cc1sc2ncn(CC(=O)OC(C)C(=O)NC(C)(C)C)c(=O)c2c1C (stereo not given)
  -1.9	-0.8	4.4	0.3	-12	-6	1	5
- CN(Cc1ccccn1)C(=O)C1CCC(=O)N(Cc2cccc(C(F)(F)F)c2)C1 (stereo not given)
  0.9	-0.1	1.7	0.6	-16	6	-8	5
- COc1ccccc1NC(=O)N1CCN(c2ncccn2)CC1
  2.3	1.1	-2.7	1.8	-10	-1	1	3
- Cc1nc(C)c(Cc2ccccc2Cl)c(=O)[nH]1
  1.7	0.4	-3.6	7.1	4	-4	-9	-5
- CCCC1C(=O)N(c2ccccc2)C1c1ccccc1 (stereo not given)
  2.2	0.5	1.5	3.1	10	0	-4	7
- C=CCN(C(=O)c1csnn1)C(C(=O)NCc1ccc(F)cc1)c1ccccc1 (stereo not given)
  3.4	-0.1	2.2	?	5	-2	33	3
- N/C(=N\OC(=O)c1cnn(-c2ccccc2)c1C(F)(F)F)c1ccc(C(F)(F)F)cc1
  -8.6	2.3	1.4	3.5	-12	-2	-2	-8
- O=C(NCCCN1CCOCC1)c1cccc(S(=O)(=O)N2CCc3ccccc3C2)c1
  0.5	0.7	0.9	?	-6	-3	0	-7
- CCS(=O)(=O)c1nc(S(=O)(=O)c2ccc(C)cc2)c(NCCCN2CCOCC2)s1
  -5.7	0.3	2.2	0.5	-5	-2	-6	-7
- Oc1ccccc1-c1nc(NCc2cccnc2)c2ccccc2n1
  2.7	0.2	2.7	-0.4	18	-1	-11	17
- O=C(c1ccc(N2CCN(S(=O)(=O)c3ccccc3)CC2)c([N+](=O)[O-])c1)N1CCOCC1
  1.5	-0.9	6.0	11	3	3	-4	2
- CCCCCc1nnc(NC(=O)C2COc3ccccc3O2)s1 (stereo not given)
  -1.5	-0.9	2.7	-2.4	0	3	-8	6
- O=C(CSc1ncnc2nc[nH]c12)c1ccccc1
  0.5	-0.3	0.5	1.8	3	-8	-6	-9
- COc1ccccc1CN(C)C(=O)c1cc2ccccc2o1
  -0.4	0.0	4.3	-1.3	1	-4	-4	-9
- COc1ccc(C(=O)N2CC=C(c3ccccc3)CC2)cc1S(=O)(=O)N1CCOCC1
  5.8	0.3	6.9	-2.5	-6	-1	2	-3
- COc1ccccc1NC(=S)NCCN1CCOCC1
  -1.2	-0.5	0.4	3.8	-9	-2	-4	-3
- COc1ccc(-c2sc3ccc(N4CCOCC4)cc3c2C#CC2(O)CCCCC2)cc1
  5.0	-1.2	·	·	·	5	4	·
- O=C(Nc1c(-c2ccccc2)nc2ccccn12)c1ccco1
  -0.4	-0.2	3.3	1.0	-5	-2	·	-1
- CC(=O)c1cccc(NC(=O)CCCSc2ccccc2)c1
  -4.5	-0.3	1.7	-2.4	-20	37	-5	-8
- CCCN1CCN(S(=O)(=O)c2ccc(OC)c(Br)c2)CC1
  -6.7	1.9	2.0	9.6	-10	2	-8	-7
- CN(C(=O)c1ccccc1C(=O)OCC(=O)Nc1ccc(OC(F)F)cc1)c1ccccc1
  -5.4	-0.2	4.4	·	·	-4	-3	·
- CC(C)(C)OC(=O)NCCCCCNC(=O)c1nc[nH]c1C(=O)NCc1ccccc1
  -6.5	-0.6	0.3	·	·	11	-2	·
- CCOc1ccccc1N1CCN(Cc2ccc(OC)c(OC)c2OC)CC1
  3.7	1.7	3.1	6.6	-14	0	-1	-27
- OCC[C@@H]1C[C@@H](O)[C@H](O)[C@]2(Cc3ccccc3CCO2)O1
  -3.3	0.1	-0.2	4.2	-10	0	-2	19
- Cc1cc(-c2ccc(Cl)cc2)n2nc(N)nc2n1
  -2.7	0.5	-118	-2.0	2	-2	-1	0
- O=C(CCSc1ccccc1)Nc1nnc(-c2ccccc2)o1
  3.7	1.0	6.5	-1.8	-12	2	-1	1
- COc1ccc(NC2SC(=O)N(C)C2=O)cc1 (stereo not given)
  3.3	0.3	0.8	0.2	-1	-3	3	-6
- COc1ccc(OC)c2c1nc1n2CCS1
  -3.6	0.2	1.5	-1.2	-4	-24	1	-4
- CC(C)(C)n1nnnc1C(c1cccs1)N(Cc1ccccc1)Cc1cccnc1 (stereo not given)
  0.4	0.2	2.9	-2.3	36	8	-2	-9
- Cn1c(SCc2ccccc2)nnc1-c1ccc2nonc2c1
  -1.1	0.4	-3.8	-4.5	13	-2	·	-2
- COc1ccc(OC)c(S(=O)(=O)NCCc2csc(-c3cccnc3)n2)c1
  -4.1	-0.1	2.6	1.1	4	0	-11	3
- C=CCNC(=S)N/N=C/c1ccc(C(C)(C)C)cc1
  ·	·	·	4.1	5	8	·	?
- COc1ccccc1N1CCN(C(=O)C2CCC(Cn3c(=S)[nH]c4ccccc4c3=O)CC2)CC1 (stereo not given)
  0.0	-0.3	3.1	?	26	3	-3	12

Later entries.
Every second line gives: LANA-H2A inh	A1 inh	UCH37 inh	RanGTP-Impb inh	T cruzi inh	Beta2AR agonist	Beta cell apopt	Calb FLC
- Cc1cccc(N2CCN(C(=O)c3c(-c4ccccc4Cl)noc3C)CC2)c1C
  2.8	2.5	·	3.1	31	23	28	-4
- O=C(Nc1nc2ccccc2[nH]1)c1ccc(Cl)c([N+](=O)[O-])c1
  -1.2	-2.7	1.3	2.5	-12	-2	4	0
- COc1cc(/C=C/C(=O)OCC(=O)N2CCN(C(=O)c3ccco3)CC2)ccc1O
  -1.9	1.6	-12	-4.0	-9	-1	-1	7
- COc1ccc(N=Nc2c(C)[nH][nH]c2=O)cc1
  0.7	-5.2	13	0.3	4	-5	3	4
- CN(C)C(=O)c1nnsc1Sc1ccc(Cl)cc1
  -1.0	0.3	3.5	-3.7	16	-3	-11	-5
- O=C(Nc1ccccc1N1CCN(C(=O)c2ccccc2)CC1)c1cccc(Cl)c1
  1.0	-0.7	1.3	3.2	39	22	2	25
- CCOc1ccccc1CNC(=O)c1ccc2c(c1)N(CC)CCS2
  6.0	1.0	-46	-1.0	12	-3	-12	2
- CC1CN(c2ccccc2)CCN1C(=O)c1cc(COc2c(F)cccc2F)on1 (stereo not given)
  -3.7	0.3	0.6	3.7	13	-2	5	-2
- COc1cc(Cl)c(C)cc1NC(=O)c1cc(S(=O)(=O)N(C)C)ccc1N1CCCC1
  -2.8	1.5	0.8	5.5	23	13	4	-41
- Cc1cc(C)cc(OCC(=O)N/N=C/c2ccncc2)c1
  4.9	-0.1	·	2.5	6	-5	4	-3
- CC(C)NC(=S)N/N=C/c1cccs1
  -4.3	0.8	·	0.2	7	1	3	15
- COc1ccc(C(=O)Nc2nc3c(s2)Cc2cc(OC)ccc2-3)cc1
  -1.3	0.1	3.1	4.3	-4	19	11	-3
- Cn1c(-c2ccccn2)[n+](C)c2ccccc21
  5.8	0.7	1.7	2.2	-10	-10	-8	1
- Cn1nnnc1SCc1c(F)cccc1F
  0.8	0.3	0.5	1.7	-18	-7	-5	-20
- O=C(Nc1ccc(COc2ccccc2)cc1)Nc1cccc(C(=O)O)c1
  -0.8	-7.5	3.3	-2.9	-8	-3	-8	4
- COC(=O)c1ccc(CSc2nc3c(c(=O)n2-c2ccc(C)cc2)SCC3)o1
  -2.6	·	4.4	-2.7	25	-4	10	-3
- O=C(NCCc1c[nH]c2ccccc12)/C(=C\c1cccnc1)NC(=O)c1ccccc1Br
  3.1	-0.4	3.9	8.5	-29	6	5	10
- COc1cccc(C(=O)NCCNC(=O)c2ccc(C)nc2)c1
  4.4	0.7	2.3	-3.1	5	-3	0	0
- COc1ccc(C(=O)CNC2=NCCC2)cc1
  0.3	-0.2	5.0	-16	-4	1	5	0
- CCOC(=O)C1C(=O)C=C(N2CCOCC2)CC1c1cccc(OC)c1 (stereo not given)
  2.0	1.3	1.2	1.5	-4	-8	·	-6
- CCOC(=O)c1sc2nc(C)nc(NCc3ccccc3)c2c1C
  1.2	-1.4	-37	-17	22	-1	-13	-5
- Cn1c(N)cc(-c2ccc(F)cc2)c(C#N)c1=O
  0.0	0.4	2.7	2.8	-15	5	-5	-1
- O=C(Nc1ccccc1)c1sccc1Oc1ccc([N+](=O)[O-])cc1F
  -0.3	0.7	2.7	-0.1	63*	8	-7	19
- Cc1cccn2c(=O)c(C=O)c(N3CCCCCC3)nc12
  -1.9	-0.4	11	?	16	-10	-4	15
- CC1CN(Cc2cn(C)nc2-c2ccc(Oc3ccccc3)cc2)CCN1C (stereo not given)
  ·	0.0	0.3	-4.4	16	4	6	4
